Screens as filed in PubChem BioAssay.
HSV augment: HSV replication enhancement. HSV replication augmentation in cells, fold increase. maximum fold increase. 220,000 compounds, 0.005% hits. AID 1956;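 active = peak rise of 1.5-fold or more in the series; inconclusive = self-fluorescent or not available for retest; tested in PC3 cells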;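 note: first round at 10 µM; read as green reporter fluorescence; hits show the peak of a series up to 25 µM; 1 = signal of infected wells without compound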
Insulin prom inh: TRM-6 insulin promoter activity inhibition; inhibition, % at 2 µM; AID 1273; TRM-6 cells (human fetal islet line), insulin promoter-eGFP reporter, imaging; reporter expression induced with tamoxifen; 130,000 compounds, 0.9% hits;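 active = inhibition above the mean plus 3 SD, with well images judged a real hit on visual review, cut at about 60% in these data, passing the limit was not always enough; inconclusive = inhibition over the cutoff but images rejected on review; inactive = inhibition not above the cutoff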
PKD1 kinase inh: blocks activity of human protein kinase D1; PKD1 kinase fluorescence polarization assay; Q15139; 200,000 compounds, 0.056% hits; AID 797; inhibition, %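 (about 10 µM by stock and volumes)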;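 active = inhibition of 50% or more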;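 note: controls were vehicle for no effect and a reference inhibitor for full effect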
GALR2 agonist: agonists of human galanin receptor 2 (GALR2); O43603; GALR2-expressing cells, agonist activation read-out; activation, %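 (tested at 5 µM)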; 140,000 compounds, 0.48% hits;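 active = above mean plus 3 SD of all compounds, about 5% in these data, not always enough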;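 note: 0% = vehicle buffer wells and 100% = reference agonist at full effect; tested in CHO reporter cells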
Target sequence (O43603 whole entry, looked up): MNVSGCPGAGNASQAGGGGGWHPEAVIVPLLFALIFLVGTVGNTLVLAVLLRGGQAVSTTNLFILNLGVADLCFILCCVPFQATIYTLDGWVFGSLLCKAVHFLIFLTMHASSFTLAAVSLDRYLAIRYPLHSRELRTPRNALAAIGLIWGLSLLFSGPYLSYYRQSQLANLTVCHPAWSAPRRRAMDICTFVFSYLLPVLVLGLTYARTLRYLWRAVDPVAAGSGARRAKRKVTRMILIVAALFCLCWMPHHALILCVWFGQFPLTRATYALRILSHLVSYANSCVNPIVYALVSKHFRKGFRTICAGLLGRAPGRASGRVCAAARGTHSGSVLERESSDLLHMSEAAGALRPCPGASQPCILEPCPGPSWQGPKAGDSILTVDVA
RGS16-Gao: RGS16-Galphao interaction regulator (human) | bead-based flow cytometry RGS16-Galphao binding, fluorescence; actives lie on both sides | binding response (% of control), % at 10 µM | 220,000 compounds, 0.38% hits | O15492+P09471;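 active = below 25% or above 175%, edge rows of some plates excepted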;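 note: Galphao activated by GDP with aluminum fluoride before binding; 100% = wells without compound and 0% = beads without RGS; some results beyond the cut were filed as inactive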
Target sequence (O15492 whole entry, looked up): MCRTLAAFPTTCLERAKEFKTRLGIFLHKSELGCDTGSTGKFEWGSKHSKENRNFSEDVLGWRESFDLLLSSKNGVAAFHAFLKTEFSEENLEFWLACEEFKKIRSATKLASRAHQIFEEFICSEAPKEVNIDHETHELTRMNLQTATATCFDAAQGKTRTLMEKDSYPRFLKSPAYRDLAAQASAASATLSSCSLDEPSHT
Target sequence (P09471 whole entry, looked up): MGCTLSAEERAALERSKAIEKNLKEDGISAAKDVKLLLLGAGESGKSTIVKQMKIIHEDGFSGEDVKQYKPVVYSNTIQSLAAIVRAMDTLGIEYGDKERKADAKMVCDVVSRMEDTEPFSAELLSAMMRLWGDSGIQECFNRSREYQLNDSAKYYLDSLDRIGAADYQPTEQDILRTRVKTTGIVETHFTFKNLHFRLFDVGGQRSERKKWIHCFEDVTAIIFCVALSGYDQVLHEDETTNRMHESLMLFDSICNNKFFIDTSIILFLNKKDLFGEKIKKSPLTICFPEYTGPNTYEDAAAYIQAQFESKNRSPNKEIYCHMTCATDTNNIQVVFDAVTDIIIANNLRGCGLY
Insulin prom inh cell count: second read-out of Insulin prom inh, no call of its own (marks repeat the call); normalized cell count, %; measured here: cell count, toxicity; reference of the scale not given here;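 cells exposed to compound for 48 h; stained nuclei by imaging scaled within each plate; lower means fewer cells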
HSV augment primary fold: further read-out of HSV augment, marked with its call; fold increase; compound at 10 µM; measured here: primary screen fold increase 10 uM; tested in PC3 cells;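 GFP signal in the first replicate; 1 = infected wells without compound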
* = called active by the depositor; i = inactive; ? = inconclusive; . = no result given.

SMILES | HSV augment | HSV augment primary fold | Insulin prom inh | Insulin prom inh cell count | PKD1 kinase inh | GALR2 agonist | RGS16-Gao
Cc1c(C(=O)NCc2ccccn2)sc2nc(-c3ccccc3)cn12 | i | 0.99 | . | . | 11 | 0.1 | 102
CCOc1ccc(-n2cnnn2)cc1S(=O)(=O)Nc1c(C)cccc1C | i | 1.1 | -77 | 140 | 3 | -1.2 | 100
COc1ccc(OC)c(C(=O)c2nc3c(n2O)CCCCC3)c1 | i | 0.86 | -39 | 104 | -7 | -2.2 | 101
Cc1onc(-c2c(F)cccc2Cl)c1C(=O)N1CCN(c2ncccn2)CC1 | i | 1 | -27 | 103 | -5 | . | 88
O=C1CC(=C(c2ccccc2)c2ccccc2)C(=O)N1CCN1CCN(c2cccc(Cl)c2)CC1 | i | 1.1 | 15 | 43 | -5 | -0.7 | 109
CC(Oc1ccc(Cl)cc1Cl)C(=O)NCCCCc1ccccc1 (stereo not given) | i | 1.1 | -29 | 77 | -9 | 0.6 | 98
O=c1c2c(n3nnnc3n1-c1ccccc1)-c1ccccc1CC21CCCC1 | i | 0.94 | 27 | 118 | 1 | -3.0 | 98
CCOC(=O)c1c(C)[nH]c(C(=O)/C(C#N)=C/c2ccc(OCC)cc2)c1C | ? | . | . | . | 1 | -2.6 | 99
CCCCC(=O)OCC(=O)Nc1cccc(S(=O)(=O)NC2=NCCCCC2)c1 | i | 1 | -17 | 114 | -4 | . | 94
Cn1c(=O)oc2cc(C(=O)c3ccccc3)ccc21 | i | 1 | -36 | 21 | 2 | -1.9 | 135
O=C(CCCl)N(Cc1nc2ccccc2c(=O)[nH]1)Cc1cccs1 | i | 0.97 | . | . | -6 | . | 91
O=C(O)c1cccc(NC(=O)C2CCCO2)c1 (stereo not given) | i | 0.55 | -56 | 101 | -9 | 0.7 | 109
Cc1ccc2c(c1)N(CC(=O)OC(CC(C)C)C(=O)NC1CCCC1)C(=O)CO2 (stereo not given) | i | 0.98 | -25 | 142 | -6 | -2.0 | 97
CN=C1c2cc3c(Br)c(OC)ccc3n2CCN1C | i | 0.92 | 32 | 128 | -7 | -1.4 | 153
NCCCC[C@H]1NC(=O)[C@H](CCC(=O)O)NC(=O)c2cc([N+](=O)[O-])cc(I)c2OCC[C@@H](C(N)=O)NC1=O | i | 0.95 | 0 | 90 | -12 | -0.7 | 102
COc1ccc(N2Nc3n[nH]c(N)c3N2)cc1 | i | 1 | -67 | 95 | 0 | -4.1 | 93
CC(C)c1ccc(NC(=O)C(c2ccc3c(c2)OCO3)N2CCN(C(=O)c3ccco3)CC2)cc1 (stereo not given) | i | 0.91 | . | . | -4 | -0.3 | 104
Cc1cc(C)c(C#N)c(SCc2ccc(C#N)cc2)n1 | i | 0.89 | 4 | 83 | -2 | -0.2 | 91
COC(=O)c1cc(C(=O)c2cc(Cl)ccc2O)coc1=N | i | 1 | 0 | 109 | -2 | . | 102
CC1(C)Cc2c(C#N)c(NCCc3ccccc3)nc(-c3ccco3)c2CO1 | i | 1.1 | 0 | 132 | -9 | 0.7 | 97
O=C(O)CS(=O)(=O)c1ccc(C(F)(F)F)cn1 | i | 0.96 | 60 | 98 | -5 | . | 108
COc1ccc(Nc2ccc(C(=O)O)cc2[N+](=O)[O-])cc1 | i | 1.1 | -5 | 95 | -15 | 0.5 | 102
COc1ccc(CCN2C(=O)c3ccncc3C2=O)cc1OC | i | 1.1 | 14 | 47 | -9 | -1.0 | 85
Cc1ccc(NC(=O)c2ccc(Oc3ncccn3)cc2)cc1 | i | 0.95 | . | . | 3 | . | 99
O=C(CCCCn1c(=O)[nH]c2ccccc2c1=O)N1CCN(c2cccc(C(F)(F)F)c2)CC1 | i | 0.87 | . | . | -7 | -0.5 | 102
CCc1ccc(CNC(=O)C(=O)NCC2CCCO2)cc1 (stereo not given) | i | 0.98 | -7 | 133 | 10 | . | 107
Cc1cccc(N2C(=O)CC(N3CCN(c4ccccc4)CC3)C2=O)c1 (stereo not given) | i | 1.1 | . | . | 10 | -1.0 | 98
Cc1nc2sc3c(c2c(=O)[nH]1)CCC3 | i | 0.99 | 15 | 114 | 0 | -2.4 | 103
COc1ccccc1OCCNC(=O)c1cc([N+](=O)[O-])cc([N+](=O)[O-])c1 | i | 1.1 | . | . | 0 | . | 101
O=C(NCc1ccc(Cl)cc1Cl)C1CC(=O)N(Cc2ccccc2)C1 (stereo not given) | i | 1 | . | . | 4 | . | 96
CCSC1=NC(=O)/C(=C2/C=Cc3ccccc3N2CC)S1 | i | 0.88 | 44 | 71 | -7 | -2.4 | 94
Cc1ccccc1NC(=O)Oc1cccc(OC(=O)c2ccccc2)c1 | i | 0.82 | . | . | . | . | 114
Cn1c2ccccc2c2ncn(CCCN3CCOCC3)c(=O)c21 | i | 0.91 | -9 | 49 | -2 | 0.2 | 95
O=C(NC1CCCCC1)c1ccccc1NC(=S)NC(=O)C1CC1 | i | 1 | -8 | 64 | -3 | -0.1 | 113
CN1CCC(OC(=O)c2ccco2)CC1 | i | 1 | . | . | 1 | . | 64
COc1ccccc1N1CCN(S(=O)(=O)c2ccc3c4c(cccc24)C(=O)N3)CC1 | i | 1 | 0 | 111 | -1 | 0.0 | 117
O=C(Nc1ccc(-c2nc3ccccc3o2)cc1)c1ccc(N2CCOCC2)c([N+](=O)[O-])c1 | i | 0.9 | . | . | 13 | -1.7 | 104
CCO/N=C(/C)c1c(O)cc(-c2ccccc2)n(-c2ccccc2)c1=O | i | 0.96 | -8 | 79 | -14 | 0.3 | 108
Clc1ccc(-c2n[nH]c3c2CCC3)cc1Cl | i | 0.72 | -19 | 106 | 12 | -2.6 | 102
CC(C)CCSc1nnc(Cn2c(=O)sc3ccccc32)n1C | i | 0.83 | . | . | -7 | -0.5 | 103

Molecules shown so far that contain two or more sulfur atoms, in the order listed:
SMILES | HSV augment | HSV augment primary fold | Insulin prom inh | Insulin prom inh cell count | PKD1 kinase inh | GALR2 agonist | RGS16-Gao
CCSC1=NC(=O)/C(=C2/C=Cc3ccccc3N2CC)S1 | i | 0.88 | 44 | 71 | -7 | -2.4 | 94
CC(C)CCSc1nnc(Cn2c(=O)sc3ccccc32)n1C | i | 0.83 | . | . | -7 | -0.5 | 103

Single records (already shown). Values in the order: HSV augment | HSV augment primary fold | Insulin prom inh | Insulin prom inh cell count | PKD1 kinase inh | GALR2 agonist | RGS16-Gao
Listed for `Cc1cccc(N2C(=O)CC(N3CCN(c4ccccc4)CC3)C2=O)c1` (stereo not given) = i | 1.1 | . | . | 10 | -1.0 | 98
Listed for `Cc1nc2sc3c(c2c(=O)[nH]1)CCC3` = i | 0.99 | 15 | 114 | 0 | -2.4 | 103
Listed for `Cn1c2ccccc2c2ncn(CCCN3CCOCC3)c(=O)c21` = i | 0.91 | -9 | 49 | -2 | 0.2 | 95

(further entries)
SMILES | HSV augment | HSV augment primary fold | Insulin prom inh | Insulin prom inh cell count | PKD1 kinase inh | GALR2 agonist | RGS16-Gao
Cn1c(C(=O)N2CCN(C3CCCCC3)CC2)cc2c(=O)n(C)c3ccccc3c21 | i | 0.9 | . | . | -8 | -3.6 | 94
CCN1CCC(CNCc2cn(-c3ccc(OC)cc3)nc2-c2ccccc2Cl)C1 (stereo not given) | i | 0.74 | . | . | 2 | . | 101
CC(=O)Nc1sc(C)c(C)c1CN1CCN(Cc2ccccc2)CC1 | i | 1 | -16 | 93 | -3 | . | 99
O=C(O)CCC(=O)N1CCCC1 | i | 0.98 | -36 | 69 | 2 | . | 103
CN(C)C(=O)/C(=C\c1ccc(-c2cccc([N+](=O)[O-])c2)o1)NC(=O)c1ccccc1 | i | 0.79 | 11 | 112 | -8 | . | 104
COc1ccc(CC(=O)NCc2n[nH]c(=S)n2-c2ccccc2)cc1 | i | 1 | . | . | -3 | . | 103
CCOC(=O)CNC(=O)CSc1nnc(-c2cccc(OC)c2)n1CC | i | 0.99 | -21 | 196 | 0 | -2.4 | 98
CC(C)OC(=O)/C(C#N)=C/c1cn(C)c2ccccc12 | i | 0.96 | . | . | . | . | 94
CCCOC(=O)c1ccc(NC(=O)C(=O)NCCN(CC)CC)cc1 | i | 0.97 | . | . | 3 | . | 103
Cc1ccc(-c2nnc(/C=C/c3ccccc3)o2)cc1 | i | 0.92 | 20 | 104 | 0 | -0.7 | 106
CN(CCO)c1ncnc2c1sc1nc(N3CCOCC3)c3c(c12)CCC3 | i | 0.85 | . | . | . | . | 104
O=C1CCN(C(=O)Nc2ccccc2Cl)N1 | i | 0.93 | -32 | 115 | 9 | -1.8 | 101
O=C(O)c1ccc2c(c1)C(=O)N(NC(=O)c1ccc(O)cc1)C2=O | i | 1 | . | . | -3 | -2.8 | 83
c1ccc(CSc2nnnn2-c2ccc3c(c2)OCCO3)nc1 | i | 1 | . | . | -4 | -0.7 | 105
O=C(Cn1ccc2ccccc2c1=O)N1CCN(c2cccc(Cl)c2)CC1 | i | 1 | . | . | -5 | 1.0 | 103
Cc1ccnc2nc(C(=O)Nc3nnc(-c4ccc(Cl)cc4)o3)nn12 | i | 0.95 | 25 | 94 | 5 | . | 100
CC(O)c1cc2c(cc1NC(=O)c1cnn3c1NC(c1ccco1)CC3C(F)(F)F)OCO2 (stereo not given) | i | 1 | 33 | 116 | -12 | 1.0 | 97
COc1ccc(-c2cc3nc4n(c(=O)c3s2)CCCCC4)cc1 | i | 1.1 | . | . | . | . | 99
C=CCN1C(c2ccc(OCC)cc2)=CS/C1=C(\C#N)c1nnc2n1CCCCC2 | i | 0.96 | . | . | -2 | -0.2 | 64
COC(=O)c1sccc1NC(=O)/C=C/c1c(Cl)cccc1Cl | i | 0.92 | -38 | 77 | -2 | -2.1 | 101
COC(=O)C1CCN(C(=O)c2cc3ccccc3oc2=O)CC1 | i | 0.87 | -30 | 74 | -4 | -1.5 | 100
O=C(Nc1cccnc1)c1cccc(-c2cc3ccccc3oc2=O)c1 | i | 0.95 | -33 | 119 | 3 | . | 102
COc1ccc(Cn2c(=S)[nH]c3ccccc32)cc1 | i | 0.89 | . | . | 2 | . | 100
N/C(=N\c1nc(CSc2ccc(Cl)cc2)cc(=O)[nH]1)Nc1cccc2ccccc12 | . | . | 10 | 53 | 2 | -1.8 | 125
COC(=O)CSc1nc2ncccc2[nH]1 | i | 0.91 | 41 | 172 | 10 | -2.5 | 105
Cc1ccc(C(=O)NC(NC(=S)Nc2ccc(S(N)(=O)=O)cc2)C(Cl)(Cl)Cl)cc1 (stereo not given) | i | 1.2 | . | . | 0 | -2.7 | 93
Cc1ccc(-c2nc3c(c(=O)[nH]c(=O)n3Cc3ccccc3)n2C)o1 | i | 1.1 | -4 | 113 | -9 | . | 86
CC1(C)OC(=O)C(=CNc2ccc(F)cc2)C(=O)O1 | i | 0.91 | 24 | 119 | 10 | -1.6 | 94
CC(NC(=O)C1C(=O)N(CCO)C2(C)CC1c1ccccc1O2)c1ccccc1 (stereo not given) | i | 0.93 | -38 | 73 | 9 | 0.6 | 105
COc1ccccc1NS(=O)(=O)c1cccc(C(=O)NN=C2CCCC2)c1 | i | 1 | . | . | -3 | . | 104
S=c1[nH]nc(-c2ccncc2)n1/N=C/C=C/c1ccco1 | i | 0.87 | 18 | 82 | -1 | . | 97
O=C(COc1ccc2ccc(=O)oc2c1)Nc1ccc2c(c1)OCCO2 | i | 0.82 | -11 | 152 | -4 | 0.3 | 106
Cc1ccc(-c2cccc(OC(=O)c3ccccc3F)c2)cc1 | . | . | 34 | 116 | 3 | -3.0 | 102
CC(=O)Nc1ccc(S(=O)(=O)N2CCC(NC(=O)c3ccco3)CC2)cc1 | i | 0.98 | 45 | 131 | 3 | 0.2 | 99
Cc1ccc(CN2CCN(/N=C/C(Br)=C\c3ccccc3)CC2)cc1 | i | 1 | . | . | . | . | 96
COc1ccc(/C=C/C(=O)c2cc(F)ccc2OC(=O)c2ccccc2C)cc1OC | i | 0.75 | -18 | 16 | 8 | 1.9 | 103
COc1ccc(S(=O)(=O)Nc2ccccn2)cc1OC | i | 0.68 | -8 | 128 | -17 | 0.5 | 115
COc1ccc(-c2cc(C(F)(F)F)c(C#N)c(SCC(=O)O)n2)cc1 | i | 1.1 | 0 | 154 | 0 | . | 104
COc1ccc(C(=O)Nc2ccccc2C(=O)NCCN2CCOCC2)cc1 | i | 1 | -441 | 46 | -4 | -0.2 | 93
CCS(=O)(=O)c1ccc(O)c(NC(=O)COc2ccccc2)c1 | . | . | 10 | 129 | -2 | -2.9 | 102
COc1ccc(NC(=O)N(Cc2cc3cc(OC)c(OC)cc3[nH]c2=O)CC2CCCO2)cc1 (stereo not given) | i | 0.9 | 6 | 86 | 4 | . | 101

Rows were taken by chance. About 1.2% of those tested had a hit in this group.
